# VACV Venus inh – vaccinia inhibition (Venus reporter). 0.46% of 330,000 active. Potency, µM (titrated, usually from 36.5 µM), for inactives: at the highest dose activity change, negative = inhibition, actives largely listed as inhibitors. Vaccinia virus Venus reporter expression, fluorescence; active means well fitted inhibition curve with a large enough effect; inconclusive means small, poorly fitted or top-dose-only effect; inactive means no such curve, though single readings can be large or run the other way; tested in A549 cells; further: nearly all actives have a fitted effect of over 30% in size; inactives centre near -10
# VACV mCherry inh – inhibitors of vaccinia virus infection (mCherry reporter signal) | Vaccinia virus mCherry reporter infection, fluorescence; about a quarter of the inactives have no number | 0.63% of 310,000 active | Potency, µM (series often up to 36.5 µM), without a hit: at the top dose activity change, negative = inhibition, hits mostly inhibitors | AID 720579; active = well fitted inhibition curve with a large enough effect; inconclusive = small, poorly fitted or top-dose-only effect; inactive = no such curve, though single readings can be large or run the other way; tested in A549 cells; further: nearly all actives have a fitted effect of over 35% in size; inactives centre near -10
# Active calls of the source: *; i = inactive; ? = inconclusive; . = not tested or not shown; & = joins results of further samples; [ ] = remark or other dose. On the % scale 0 is the no-effect control and ±100 the full control effect; potency means the concentration at half of the fitted maximal effect.
canonical_smiles,VACV mCherry inh,VACV Venus inh
O=C(OC(c1ccc(NS(=O)(=O)c2ccccc2)cc1)(C(F)(F)F)C(F)(F)F)c1ccccc1,?,?
NS(=O)(=O)c1ccc(NC(=S)NC2CCCC2)cc1,-4%,-10%
O=C(c1ccccc1)N1CC(COc2ccccc2)OC(c2ccco2)O1 (centres undefined),.,-29%
N#Cc1cn(Cc2ccco2)c(=O)[nH]c1=O,-6%,-3%
O=C1NC(=O)C2(N1)c1ccccc1-c1ccccc12,i,-5%
CCc1ccc2c(COC(=O)C3CC(=O)N(CCc4ccccc4)C3)cc(=O)oc2c1 (centres undefined),-14%,-5%
O=c1[nH]cnc2ccc([N+](=O)[O-])cc12,i,-2%
CCOC(=O)c1cnn(-c2ccccc2)c1-c1ccccc1,i,-12%
Cn1cc(CCNC(=O)CC2C(=O)NCCN2CC(c2ccccc2)c2ccccc2)cn1 (centres undefined),i[7.34 µM],-12%[7.34 µM]
COc1ccc(S(=O)(=O)N2CCC(C(=O)N(CC(C)C)C3CCS(=O)(=O)C3)CC2)cc1OC (centres undefined),-11%,3%

# Next section, starting with the last five of the part before.
canonical_smiles,VACV mCherry inh,VACV Venus inh
CCc1ccc2c(COC(=O)C3CC(=O)N(CCc4ccccc4)C3)cc(=O)oc2c1 (centres undefined),-14%,-5%
O=c1[nH]cnc2ccc([N+](=O)[O-])cc12,i,-2%
CCOC(=O)c1cnn(-c2ccccc2)c1-c1ccccc1,i,-12%
Cn1cc(CCNC(=O)CC2C(=O)NCCN2CC(c2ccccc2)c2ccccc2)cn1 (centres undefined),i[7.34 µM],-12%[7.34 µM]
COc1ccc(S(=O)(=O)N2CCC(C(=O)N(CC(C)C)C3CCS(=O)(=O)C3)CC2)cc1OC (centres undefined),-11%,3%
Cc1cc(Cl)ccc1NNC(N)=S,-3%,-13%
Cc1ccc(C(=O)N2CC2C)cc1 (centres undefined),-20%,-12%
CCOc1ccc(-n2c(O)c(/C=N/c3ccnn3Cc3ccncc3)c3ccccc3c2=O)cc1,i,?
CCN(CCNC(=O)C1CCN(Cc2nc(-c3cccc(Cl)c3)oc2C)CC1)c1ccccc1,14µM*,11µM*
O=C(C1CCC1)N1CCN(c2ccccc2)CC1,i,0%
Cn1c(=O)c2c(nc(N3CCN(Cc4ccccc4)CC3)n2CC(=O)c2ccccc2)n(C)c1=O,-5%,2%
COc1ccc(-c2csc3ncnc(N4CCN(c5ccccc5)CC4)c23)cc1,-20%,-17%
COc1ccc(-c2noc(-c3ccccc3C(=O)NCc3ccco3)n2)cc1OC,-1%,0%
COc1ccc(/C=C2\SC(=O)N(CC(=O)Nc3cccc(C)c3)C2=O)cc1O,?,?
CCC(Oc1ccccc1C)C(=O)Nc1ccc(S(=O)(=O)Nc2cc(C)on2)cc1 (centres undefined),-11%,-3%

# Additional records follow:
canonical_smiles,VACV mCherry inh,VACV Venus inh
COc1ccc(C(CC(=O)O)NC(=O)c2sc3ccccc3c2Cl)cc1 (centres undefined),-29%,-14%
O=C(Cn1c(=S)[nH]c2ccccc2c1=O)N1CCN(c2ccc(F)cc2)CC1,i,4%
CC1(C)CC(=O)C=C(c2ccc(COC(=O)c3ccccc3)cc2)C1=O,i,-5%
Cn1c(=O)c2c(SCC(=O)N3CCOCC3)nc(-c3ccccc3Cl)nc2n(C)c1=O,i,-12%
COC(=O)c1ccc(N(C(=O)CNC(=O)c2ccco2)C(C(=O)NC2CCCC2)c2ccco2)cc1 (centres undefined),-11%,-4%
COc1ccccc1-n1nnnc1SCC(=O)NC1CC1,-6%,-10%
CCC(=O)c1ccc(OCC(=O)OCC(=O)Nc2c(C)n(C)n(-c3ccccc3)c2=O)cc1,-10%,-2%
CN1CC2(Cc3cc([N+](=O)[O-])ccc31)C(=O)OC(C)(C)OC2=O,-15%,-19%
CCOc1cc(/C=C2/N=C(C)C(C(=O)OC)=C2O)ccc1O,i,4%
Cc1cc(C(=O)Nc2ccc(Nc3ccccc3)cc2)ccc1[N+](=O)[O-],i,?

# (next part)
canonical_smiles,VACV mCherry inh,VACV Venus inh
CCOC(=O)c1sc(=S)n(-c2ccc(OC)cc2)c1N,i,0%
Cc1ccc(NC(=O)CN2C(=O)CCSc3ccc(S(=O)(=O)N4CCCC4)cc32)cc1,-9%[7.34 µM],-8%
O=C(NCc1ccccc1Cl)c1nnc(Cc2ccc(Cl)cc2)o1,-11%,-10%
COc1ccc(CN2CCCC(C(=O)c3ccc(Cl)cc3)C2)c(OC)c1 (centres undefined),-2%,-8%
O=C(NCC(=O)N1CCN(S(=O)(=O)c2ccccc2F)CC1)c1ccc(Br)o1,-6%,-2%
CC1CCN(C(=O)CSc2nnc(Cc3cccn3C)n2-c2ccc(F)cc2)CC1,-7%,1%
Cc1nnc(SCC(=O)NC2CCC(C)CC2)s1 (centres undefined),-14%,-4%
Cc1cc(C)c2c3c(sc2n1)C(=O)N(c1ccccc1C)CC(=O)N3,i,-5%
O=C(Nc1cccc(Cl)c1)c1ccccc1,-14%,-14%
Cc1ccccc1CNC(=O)C1CCC(=O)N(C2CCCCCC2)C1 (centres undefined),-8%,-12%

# (list continues)
canonical_smiles,VACV mCherry inh,VACV Venus inh
CCONC(=O)Nc1ccccc1,-9%,-3%
CCn1ncc(C2=NOC(C(=O)Nc3cccnc3)C2)c1C (centres undefined),-11%,-5%
O=C(/C=C/c1ccc(OCc2cccc(Cl)c2)cc1)N1CCOCC1,i,-16%
COC(=O)c1ccccc1NC1CC(=O)N(c2c(C)cccc2C)C1=O (centres undefined),i,-10%
NC(=O)NOCc1ccc(F)cc1Cl,i,1%
COc1ccc(/C=C/C(=O)c2c(O)cc(C)oc2=O)c(OC)c1,i,43%[activator]
CCN(C(=O)CN1CCN(c2ccccc2OC)CC1)c1c(N)n(Cc2ccccc2)c(=O)[nH]c1=O,-13%,-3%
Cc1ccc2c(c1)N(CC(=O)NC1CCC(C)CC1)C(=O)c1cccnc1O2 (centres undefined),-16%,-4%
COc1ccc(CCCc2nnc(SCC(=O)Nc3cc(C)ccc3C)o2)cc1,4%,1%&-12%
Cc1cc[n+](C2=C([O-])c3ccccc3C(=O)/C2=N\S(=O)(=O)c2cccs2)cc1C,-14%,-17%

# New compounds follow
canonical_smiles,VACV mCherry inh,VACV Venus inh
O=C(c1ccccc1)C1C(=O)c2ccccc2C1=O,22%,128%[activator]
COc1cc(C2C(C(=O)c3ccc(C)o3)=C(O)C(=O)N2CCc2ccccc2)ccc1O (centres undefined),-9%,5%
COc1ccc(C(=O)NC(=S)Nc2nc(C)cc(C)n2)cc1Br,0%,8%
COc1cccc(N2CCN(C(=O)c3[nH]c(C)c(C(C)=O)c3C)CC2)c1,?,?
CCCCC(=O)Nc1ccc2nc(SCC(=O)N3CCOCC3)sc2c1,-10%,-12%
CC(=O)NC1=C(C#N)CCC1,-15%,-6%
COc1cccc(C(=O)Oc2ccc3c(C)cc(=O)oc3c2C(C)=O)c1,-14%,-11%
O=c1c2ccccc2nc(N2CCCC2)n1-c1ccccc1,-7%,-9%
CC(C)c1ccc(CC(=O)N2CCC2(C)C(=O)NS(=O)(=O)c2cccc(C#N)c2)cc1 (centres undefined),8%,0%
COc1ccc(/C=C/C(=O)Nc2ccc(-n3nncc3-c3ccc(OC)c(OC)c3)cc2)cc1OC,?,-15%

# Next part:
canonical_smiles,VACV mCherry inh,VACV Venus inh
CCOc1ccc(-c2csc(-c3c(N)c(C(=O)c4ccc5c(c4)OCO5)n4ccccc34)n2)cc1,-22%,-12%
CN1CCc2ccccc2Cc2[nH]c3ccccc3c2CC1,i,-9%
CC(C)CN(C(=O)COc1ccccc1C(=O)NCc1ccccc1)C1CCS(=O)(=O)C1 (centres undefined),-7%,-4%
Cc1cccc(-n2nnc3cnn(C)c3c2=O)c1,.,-3%
COc1ccccc1NC(=O)Nc1ccccc1N1CCOCC1,-10%,-16%
O=C(CNC(=S)N(Cc1ccc(F)cc1)C1CCCCC1)NCCN1CCOCC1,i,-7%
O=C(CSc1nc2ccccc2nc1Cc1ccccc1)Nc1ccc2c(c1)OCO2,-27%,-22%
Cc1noc(NS(=O)(=O)c2ccc(NC(=O)C(Cl)(Cl)Cl)cc2)c1C,-17%,-13%
CC(C(=O)N(C)C1CCCCC1)N1CCC(C(N)=O)CC1 (centres undefined),-5%,4%
COc1cccc(N2CCN(c3ccc4nnc(CCC(=O)Nc5cc(C)ccn5)n4n3)CC2)c1,-3%[7.34 µM],-1%[7.34 µM]

# Remaining list, next part.
canonical_smiles,VACV mCherry inh,VACV Venus inh
OCCNCc1cc(Br)ccc1OCc1ccc(Cl)cc1Cl,.,?
Cc1cc(N(C)C)cc(C)c1C=O,-12%,-11%
COc1ccc(C(=O)NCCSC2CCCCC2)cc1,-12%,-20%
O=C(CCN1C(=O)C2C3C=CC(C3)C2C1=O)N1CCN(c2cccc(Cl)c2)CC1 (centres undefined),.,?
Cc1ccc(NC(=O)/C(=C\c2cccc(Br)c2)NC(=O)c2ccco2)cc1,-3%,-23%
CCOC(=O)c1c(C)[nH]c(CCC(=O)Nc2ccccc2C(=O)OC)c1C,-11%,-8%
O=C(COC(=O)CCc1nc2ccccc2c(=O)[nH]1)Nc1ccc(Cl)cn1,-10%,2%
Cc1ccc(OCC(=O)OCC(=O)c2cccc([N+](=O)[O-])c2)cc1C,i,-13%
O=C(NCc1ccc(F)cc1)c1ccc(S(=O)(=O)N2CCCC2)cc1,i,-7%
O=C(COC(=O)c1ccc([N+](=O)[O-])o1)NC1CCCCC1,?,-18%

# The list continues.
canonical_smiles,VACV mCherry inh,VACV Venus inh
O=C(NCC(c1ccco1)N1CCc2ccccc2C1)c1cccc([N+](=O)[O-])c1 (centres undefined),i,-13%
Cc1cc(=O)n2[nH]c(NCc3ccc(F)cc3)nc2n1,-11%,-16%
Cc1ccccc1N1CCN(C2CCCN(C(=O)c3ocnc3C)C2)CC1 (centres undefined),i,-18%
CCOC(=O)Cn1c(=O)c2c(nc3n2CCN3Cc2ccccc2)n(C)c1=O,.,-4%
COc1ccc(C2=NS(=O)(=O)N(C)C(C(=O)Nc3ccc4c(c3)OCO4)=C2)cc1OC,-12%,-14%
CCN1CCN(c2cc(C)c3cc(NC(=O)c4cc(Br)ccc4Cl)ccc3n2)CC1,-20%,-23%
O=C1CCCC2=C1C1(CCCC1)N=C(Nc1nc3ccccc3s1)N2,i,-11%
CCn1c(SCC(=O)NC2CCCCC2)nc2ccccc2c1=O,i,-7%
Cc1ccc(NC2CC(C)NC(=S)N2)cc1 (centres undefined),i,-15%
CC(C)Cn1c(O)c(/C=C2\C=NN=C2c2ccccc2)sc1=S,?,?

# (further entries)
canonical_smiles,VACV mCherry inh,VACV Venus inh
CCOc1nc(N=C(N)N)nc2c(C)cccc12,-13%,-14%
COC(=O)[C@]12CCCCC=C1N(Cc1ccco1)C(=O)[C@H](CC(=O)N1CCCCC1)C2,25%,4%
COc1ccc2c(c1)C1(C)CC(C)(C)N2C(=O)N1c1ccccc1 (centres undefined),.,?
COc1ccc2cc(S(=O)(=O)c3ccccc3F)c(=O)oc2c1,-6%,-9%
CC(=O)N/C(=C\c1cccc([N+](=O)[O-])c1)C(=O)NC(C)C,-2%,0%
O=C(CSc1nn(-c2ccc(Cl)cc2)c(=S)s1)NCC1CCCO1 (centres undefined),?,-24%
COc1c(O)cc2oc(-c3ccc(O)cc3)cc(=O)c2c1O,-24%,-22%
CNC(=O)c1cccn(Cc2ccc(C(F)(F)F)cc2)c1=O,?,?
O=C(c1ccc(N2CCOCC2)nc1)N1CCOCC1,-7%,-10%
FC(F)(F)c1ccccc1-c1nc(-c2ccncc2)no1,i,-10%

# The last two records of the part before open the next one.
canonical_smiles,VACV mCherry inh,VACV Venus inh
O=C(c1ccc(N2CCOCC2)nc1)N1CCOCC1,-7%,-10%
FC(F)(F)c1ccccc1-c1nc(-c2ccncc2)no1,i,-10%
Cc1nc(C(=O)NC2CC2)sc1C1(C)CC(c2ccccc2)=NO1 (centres undefined),-5%,-11%
COc1ccc(-n2c(C)cc(C(=O)COC(=O)Cc3n[nH]c(=O)c4ccccc34)c2C)cc1,-1%,-16%
NC(=O)CN1CCCC1c1ccc2c(c1)OCCO2 (centres undefined),15%,-5%
COc1ccc2nc(N(Cc3cccnc3)C(=O)C3COc4ccccc4O3)sc2c1 (centres undefined),i,-5%
O=C(COC(=O)c1ccc([N+](=O)[O-])o1)Nc1ncc(Cl)cc1Cl,i,-6%
CC(=O)c1cccc(NC(=O)c2ccc(S(=O)(=O)N3CCCC3)cc2)c1,-8%,-1%
O=C(CSc1ncn[nH]1)Nc1ccnc2ccccc12,-2%,-17%
CCCCOc1ccc(S(=O)(=O)N2CCN(C)CC2)cc1,i,-15%
Clc1ccccc1-c1nnc(-c2ccccc2CNc2ccc(Br)cc2)o1,-19%,-15%
COCCCn1c(=O)c2sccc2n(Cc2cccc(F)c2)c1=O,-14%,-8%

# (more compounds)
canonical_smiles,VACV mCherry inh,VACV Venus inh
COc1ccc(CC(N)c2csc(NC(=O)c3ccc(OC)cc3)n2)cc1 (centres undefined),2%,-11%
COc1ccc(-c2c(C)c3ccc(O)c(CN4CCN(CCO)CC4)c3oc2=O)cc1OC,-5%,-8%
CC(C)CCNC(=O)C1CCN(C(=O)c2cc3sccc3n2Cc2ccc(Cl)cc2)CC1,?,?
COc1ccc(CC(=O)Nc2cc(=O)n(C)c(=O)n2C)cc1,i,-11%
CCOc1ccc(/C=C(\C(=O)O)c2ccc(S(=O)(=O)N3CCOCC3)s2)cc1OC,-12%,0%
CCOc1ccc(/C=C(/NC(=O)c2ccccc2Cl)C(=O)O)cc1,3%,-2%

# Compound activity deposited in PubChem BioAssay by National Center for Advancing Translational Sciences (NCATS).

# An unsorted share of the library (roughly 0.87% active in at least one column).
